# S aureus helic: S. aureus DNA helicase inhibition; purified S. aureus helicase, fluorescence unwinding assay; about half of the hits fall short of the stated cut; inhibition, %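 (tested at about 80 µM)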; hit rate 0.05% among 120,000; AID 485395;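 active means both duplicates at 50% or more, or one of them with a favoured structure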;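 further: 0% = mean of negative control wells and 100% = mean of positive control wells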
# MgrA DNA FP: modulators of Staphylococcus aureus MgrA DNA binding; fluorescence polarization; inhibition, %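 (about 10 µg/mL by stock and volumes)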; hit rate 0.13% among 84,000; AID 602314;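 active means above 50% in either of two replicates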;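 further: 0% = protein plus DNA without compound and 100% = DNA alone without protein; higher means less MgrA bound to DNA so lower polarization; one replicate is shown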
# Numbers without * were called inactive; · = no result given. Only part of the results is shown; count on the stated rates, not on these rows.
MgrA DNA FP,S aureus helic,Structure
-1.4,13.0,NC(=O)C1CCN(C(=O)CSc2nc(O)cc(=O)[nH]2)CC1
-0.8,7.0,CCOC(=O)CSc1nc(C)c2cc(C)c(C)cc2n1
2.4,-22.0,Nc1sc2c(c1C(=O)c1ccccc1)CCCC2
3.6,13.0,Nc1n[nH]c(CCCc2nc(N)n[nH]2)n1
·,-21.0,C/C(N)=C(/C#N)C(=O)CSc1nc(C)nc2ccccc12
2.2,·,Cc1cc(Sc2ccc(Cl)cc2)nc(-c2ccccn2)n1
·,-4.0,CCOc1ccc(NC(=O)CSc2nc3[nH]ncc3c(=O)n2-c2ccc(OC)cc2)cc1
·,4.0,CC1CN(CC(O)COC2CCCc3ccccc32)CC(C)O1 (stereo not given)
-1.4,·,O=C(Nc1ccc2nccnc2c1)c1ccc2nsnc2c1
·,-11.0,COC(=O)c1sccc1OCc1ccc(Cl)cc1
-1.1,-1.0,O=C(Nc1nccs1)C1C2/C=C\CCCCC21 (stereo not given)
28.1,-6.0,CC1=C/C(=C/c2ccco2)C(=O)O1
3.5,10.0,COc1ccc(C(=O)Nn2c(C)nnc2-n2nc(C)cc2C)cc1OC
0.0,-1.0,C=CCSC1=N/C(=C\c2ccccc2)C(=O)N1c1ccc(OC)cc1
18.5,4.0,CC(=O)NC1(c2ccccc2)CCN(C(=O)c2cccs2)CC1
-1.0,18.0,CS(=O)(=O)N(CC(=O)N1CCCCC1)C1CCCCC1
·,20.0,O=S(=O)(NN1CCOCC1)c1ccc(Cl)s1
·,4.0,Cc1cc(C)cc(N(CC(=O)O)S(=O)(=O)c2c(C)[nH]c(=O)[nH]c2=O)c1
0.8,-13.0,CCOc1ccc(NC(=O)NC(C)CC)cc1 (stereo not given)
·,-8.0,O=C(c1ccc2c(c1)S(=O)(=O)N=C1CCCCCN12)N1CCCc2ccccc21
·,17.0,CC1=CC(C)C(C2OCC(C)(C)CO2)C(C)C1 (stereo not given)
2.2,9.0,CCC(=O)c1ccc(OCC(O)CNC2CCCCCC2)cc1 (stereo not given)
·,-21.0,CCOC(=O)C1=C(C)Nc2ncnn2C1
1.1,10.0,CC1CCN(C(=O)CNC(=O)c2cccs2)CC1
0.2,·,N#CCc1nn2c(-c3ccccc3)ccnc2c1C#N
·,-8.0,COC(=O)C(Cc1ccccc1)NC(=O)c1c(-c2ccccc2)noc1C (stereo not given)
1.1,·,CCOC(=O)N1CCCN=C1NNc1cc(Cl)ccc1OC
2.3,·,Cc1cc(N2CCN(c3nc4cc(Cl)ccc4s3)CC2)c2ccccc2n1
1.2,11.0,C=CCn1c(SCC(=O)c2ccccc2)nnc1-c1cc2ccccc2o1
·,-4.0,Cc1nc2ccc(Cc3ccc4nc(C)oc(=O)c4c3)cc2c(=O)o1
-2.2,8.0,CC1CCN(C(=O)c2ccc(NS(=O)(=O)c3ccccc3)cc2)CC1
1.9,-6.0,CCCC(=O)c1c(NC(C)C)cc(C)oc1=O
10.2,-3.0,S=c1[nH]c2ccccc2n1C1CCCCC1
·,12.0,Cc1c2n(c3ccccc13)CC/C2=N\O
·,24.0,CCOC(=O)N1CCN(c2nc(-c3ccccc3)cc(C(F)(F)F)n2)CC1
-2.9,·,O=C1CC2(CCCC2)C(=O)N1c1ccc(S(=O)(=O)NCC2CC2)cc1Cl
·,11.0,c1cn(-c2ccc3nnnn3n2)cn1
-0.9,·,Cc1[nH]c(=S)[nH]c(=O)c1Cc1c(F)cccc1Cl
1.5,·,CC(C)(C)NC(=O)[C@@H]1C[C@@H]2CCCC[C@@H]2CN1C[C@@H](O)[C@H](Cc1ccccc1)NC(=O)[C@H](CC(N)=O)NC(=O)c1ccc2ccccc2n1
·,30.0,COCCOC(=O)c1ccc2nc(N)sc2c1

# Ordered by formula weight (lowest first): some entries from above
MgrA DNA FP,S aureus helic,Structure
10.2,-3.0,S=c1[nH]c2ccccc2n1C1CCCCC1
·,30.0,COCCOC(=O)c1ccc2nc(N)sc2c1
-2.2,8.0,CC1CCN(C(=O)c2ccc(NS(=O)(=O)c3ccccc3)cc2)CC1

# Quoted at random: 2 records from the list, in no set order.
MgrA DNA FP,S aureus helic,Structure
·,-4.0,Cc1nc2ccc(Cc3ccc4nc(C)oc(=O)c4c3)cc2c(=O)o1
3.6,13.0,Nc1n[nH]c(CCCc2nc(N)n[nH]2)n1

# The list goes on:
MgrA DNA FP,S aureus helic,Structure
·,7.0,CNC(=O)CSc1nnc(-c2ccccc2OC)n1CCc1ccccc1
·,16.0,NC(=O)c1cc(N)cc(C(N)=O)c1
·,0.0,Cc1nc(SC(C)C(=O)O)c(C#N)c(C)c1Cl (stereo not given)
-1.1,-1.0,Fc1c(F)c(F)c(NC2=NCCCCC2)c(F)c1F
·,11.0,Nc1cccc(CCC(=O)O)c1
-4.3,·,CNc1nnc(-c2ccco2)s1
0.8,8.0,O=C(NCC1CCCO1)c1cc(-c2ccc(Cl)s2)nc2ccccc12 (stereo not given)
-1.1,·,O=C(CSC(=O)c1ccco1)Nc1cc(C(F)(F)F)cc(C(F)(F)F)c1
·,6.0,O=C(CNc1ccc2ccccc2c1)N1CCN(c2ccccc2)CC1
·,-13.0,COc1cccc(C(=O)NCCSc2c[nH]c3ccccc23)c1
2.8,·,COC(=O)c1sc(-c2ccccc2)cc1NC(=O)CC#N
-2.4,7.0,CCOC(=O)/C=C1\NC(c2ccccc2)=C(c2ccccc2)C1=O
3.1,·,CCOC(=O)C1=C(c2ccccc2)OC(N)=C(C#N)C1c1ccc(C(F)(F)F)cc1 (stereo not given)
·,-16.0,O=C(NC1CCCc2ccccc21)c1cc(S(=O)(=O)N2CCCCC2)c[nH]1 (stereo not given)
·,-23.0,O=C(CSc1ccc2nnc(-c3ccccc3)n2n1)N1CCCCC1
·,-3.0,CCCCC(C(=O)O)N1C(=O)/C(=C/c2cccnc2)SC1=S (stereo not given)
-1.8,·,COC(=O)c1c(C(=O)OC)c(-c2ccccc2)n2c1CCC2
4.4,20.0,O=C(OCC(=O)c1ccccc1Cl)c1cnccn1
-1.4,·,COc1ccc(OC(=O)c2cscc2Sc2ccc(Cl)cc2)cc1
-0.5,7.0,CCOC(=O)NN1CNc2ccccc2C1=O
0.1,·,c1ccc(CN=C2SC(=Nc3ccccc3)C3=C2CCCC3)cc1
·,10.0,COC(=O)C1CCN(C(=O)CCC2CCCCC2)CC1
-3.0,-3.0,COc1ccc(CNC2CCCCC2)cc1
·,11.0,CC1CCCCC1NC(=O)COC(=O)c1cc(-c2ccco2)nc2ccccc12 (stereo not given)
·,-22.0,CCNC(=O)c1cnc(N2CCCC2)nc1
0.0,6.0,Cc1c(CCC#N)c(Cl)n2c(nc3ccccc32)c1C#N
-0.1,·,O=C(NC(=O)c1cnccc1C(F)(F)F)Nc1ccc(Cl)cc1Cl
·,5.0,N=c1n(Cc2ccccc2)c2ccccc2n1CC(O)c1ccco1 (stereo not given)
·,-1.0,O=C(NCc1ccccc1)c1ccc2noc(-c3ccccc3)c2c1
4.8,11.0,CCOc1ccc2[nH]c(=O)c(CN(C(=O)Nc3ccccc3)C3CC3)cc2c1
1.1,10.0,CCOP(=O)(c1ccccc1)C(O)c1ccc(Br)cc1 (stereo not given)
-5.6,13.0,O=C(O)c1ccccc1NS(=O)(=O)c1ccccc1
4.2,15.0,Cc1nc2cc(-c3ccccc3)nn2c(C)c1CC(=O)N1CCCC1
·,8.0,COc1cccc(C(=O)Nc2c(C(=O)Nc3ccccc3F)oc3ccccc23)c1OC
-9.7,·,Cc1ccc(S(=O)(=O)CCSc2nnc(-c3ccco3)n2C)cc1
1.5,·,Cc1ccc(S(=O)(=O)c2cc(C(F)(F)F)cc(C(F)(F)F)c2)cc1
-1.6,·,CCOC(=O)c1ccc(NC(=S)NCc2ccncc2)cc1
-0.1,2.0,COCCn1c(C)cc(C=C2C(=O)NC(=O)NC2=O)c1C
·,11.0,COc1cc(CN(C(=O)CN2C(=O)c3ccccc3S2(=O)=O)c2ccc(Cl)cc2)ccc1O
-10.3,3.0,Cc1n[nH]c(C)c1CC(=O)O
-1.5,·,CSc1ncccc1C#N
-1.2,7.0,O=C(Nc1ccccc1)C1CC=CCC1C(=O)OCC1CCCO1 (stereo not given)
·,1.0,O=c1ccc(-c2cccs2)nn1Cc1ccccc1
0.0,14.0,O=C(NCCc1c[nH]c2ccccc12)c1ccccn1
-3.6,9.0,Cc1cc(N2CCCC(C(=O)O)C2)n2cnnc2n1 (stereo not given)
-1.4,·,CC1=CC(C)(C)NC(=S)N1
·,-22.0,COc1ccc(N(C)C(=O)c2noc3c2COc2ccccc2-3)c(OC)c1
-0.8,10.0,O=C(O)c1cccc(S(=O)(=O)NCC2CCCO2)c1 (stereo not given)
·,16.0,Cc1ccc(C)c(N2CCN(c3cnn(-c4nc5ccccc5o4)c(=O)c3Cl)CC2)c1
-0.2,21.0,Cc1oc(-c2cccc(Cl)c2)nc1CN1CCCC(C(=O)NC2CCCc3ccccc32)C1 (stereo not given)

# Compound profiles (already shown). Order of values: MgrA DNA FP	S aureus helic
# Record of O=C(NCCc1c[nH]c2ccccc12)c1ccccn1 = 0.0	14.0
# Record of O=C(O)c1cccc(S(=O)(=O)NCC2CCCO2)c1 (stereo not given) = -0.8	10.0

# (continued)
MgrA DNA FP,S aureus helic,Structure
·,16.0,O=C1CC(c2ccccc2)CC(O)=C1C=NCC1CCCO1 (stereo not given)
·,7.0,CCCn1c(NCc2c[nH]c3ccccc23)nc2ccccc21
·,4.0,Cc1ccc(N2CCN(C(=O)c3cc4cc(Br)ccc4oc3=O)CC2)cc1Cl
·,13.0,CCC(=O)NC(O)C(=O)c1ccc(C)cc1 (stereo not given)
·,-5.0,N#Cc1ccc(Oc2ccc(C#N)cc2)cc1
-1.3,·,CCN(CC)CCOC(=O)c1ccc(NC(=O)CN2C(=O)/C(=C/c3ccccc3)SC2=S)cc1
-1.5,2.0,CC(C)CC1CCCCC1OC(=O)C[N+]1(C)CCCCC1 (stereo not given)
·,-11.0,Cc1nc2cc(-c3ccccc3)nn2c(C)c1CCC(=O)N1CCN(c2ccccn2)CC1
2.7,-23.0,CCN1CCN(C(=O)c2ccccc2F)CC1
·,10.0,O=C(CSc1nnc(-c2ccc3c(=O)n4c(nc3c2)CCCCC4)o1)c1c[nH]c2ccccc12
0.0,·,O=[N+]([O-])c1cccnc1Sc1ccc(Cl)cc1
-2.6,·,CCOC(=O)c1c(C)n(-c2ccccc2)c2c1cc(OC(=O)c1ccccc1C)c1ccccc12
-2.4,9.0,CCC(=O)c1cn(CC(=O)N2CCc3ccccc32)c2ccccc12
·,9.0,COc1ccc(OC)c(C(=O)c2coc3ccc(O)c(CN(C)C)c23)c1
·,-3.0,Cc1ccc2nc3c(c(C(=O)OC4CCOC4=O)c2c1)CCCC3 (stereo not given)
·,-3.0,CC1CCC(N(C)Cc2nc3ccc(Cl)cc3n2CCO)CC1 (stereo not given)
-1.7,13.0,N#Cc1cn(CCCOc2ccccc2)c2ccccc12
·,19.0,Cc1cc(C#N)c2c(c1)-c1ccccc1CC2
1.1,-5.0,CCN1CCN(C(=O)Cn2nc(C)c3sc4ccccc4c3c2=O)CC1
-1.2,6.0,CC(C)c1cc(=O)[nH]c(SCc2nc(-c3ccccc3)no2)n1
-0.7,·,CCOC(=O)c1csc(CS(=O)(=O)Cc2cccc(C(F)(F)F)c2)n1
·,9.0,CCN1CCN(c2ncc(C(=O)Nc3ccccc3C(=O)OC)c3ccccc23)CC1
1.1,·,Cc1[nH]c2ccccc2c1-c1ccc(Cl)nn1
·,17.0,CC(=O)Oc1cc2sc(C)nc2c2sccc12
2.0,10.0,COc1ccc(C2C(C(=O)Nc3cnc4ccccc4c3)c3ccccc3C(=O)N2C)cc1 (stereo not given)
-1.6,2.0,COc1ccc(-c2nnc(SCc3nnc(-c4ccccc4)o3)o2)cc1OC
·,1.0,O=C(Nc1ccc(Br)cc1)c1cc(C2CC2)on1
0.8,5.0,COc1ccc(-c2cc(C(F)(F)F)nc(SCC(N)=O)n2)cc1
3.4,·,O=C(O)/C=C/C(=O)Nc1ccccc1Sc1nccc(C(F)(F)F)n1
2.8,19.0,O=C(Nc1nn[nH]n1)C1CCCCC1
-1.0,·,O=C(OCc1ccccc1)c1cnc(Sc2ccc(Cl)cc2)nc1C(F)(F)F
0.2,1.0,N#Cc1ccc(OCC(=O)N2CCCCC2)cc1
-1.8,-15.0,CCN(CC)S(=O)(=O)c1cc(C(=O)NC2CC2)ccc1Cl
·,-10.0,Cc1nc2ccccc2nc1CSc1nnc(-c2ccccc2)o1
4.0,15.0,CCOC(=O)CSc1nc2ccccc2o1
-2.1,·,CC1(N2CCOCC2)CC2(O)C(=[N+]1[O-])CCC/C2=N\O (stereo not given)
1.4,-9.0,O=C(CC(NCc1ccccc1)C(=O)O)NC1CCCCC1 (stereo not given)
·,-6.0,NC(=O)C1CCN(C(=O)/C=C/c2cccc(Cl)c2)CC1
-1.1,7.0,CCC(SC1=Nc2ccccc2C2=NC(c3ccccc3)C(=O)N12)C(=O)Nc1cccc(OC)c1 (stereo not given)
·,-16.0,CC1=NN(c2ccc(C)cc2)C(=O)C1
·,-8.0,Cc1ccc(-c2csc(NC(=O)C3(c4ccccc4)CC3)n2)s1
0.3,4.0,CCSc1nc(SCC)c2c3c([nH]c2n1)CCCC3
2.2,-5.0,CC(Sc1nc(-c2ccccc2)cc(C(F)(F)F)n1)C(=O)N1CCCC1 (stereo not given)
·,0.0,O=C(NCc1ccco1)c1ccccc1NCC(=O)N1CCCc2ccccc21
·,14.0,O=C(c1ccccc1)c1cc(Cl)ccc1NCC(=O)N1CCOCC1
-3.6,6.0,O=C(Cc1ccccc1)OCc1nnc(-c2ccccc2)o1
0.0,6.0,Clc1ccc(Cn2c(CNc3ccccc3)nc3ccccc32)cc1
·,-9.0,CCOC(=O)C1CCN(c2nc(-c3cccc(Cl)c3)c3c(n2)-c2ccccc2OC3)CC1
1.2,7.0,O=C(Cn1cc2c(n1)CCCC2)NCCCN1CCCCC1

# Source: PubChem (ICCB-Longwood Screening Facility, Harvard Medical School)
